# PV pol inh: poliovirus RdRp elongation inhibitors, primary screen, biochemical, fluorescence polarization, total intensity | Genome polyprotein (Poliovirus type 1 (strain Mahoney)), P03300 | poliovirus polymerase elongation; stronger effect = lower value | % elongation, % (compound at 16.7 µg/mL) | actives 0.66% (n = 150,000) | AID 588519, 2011; in the data active means % elongation below about 90%; further: some results filed as inactive read as strong as hits
# Mtb MbtI inh: MbtI salicylate synthase inhibitors, primary screen, biochemical, fluorescence intensity | actives 0.89% (n = 100,000) | AID 493033, 2011 | inhibition, %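 (about 17 µg/mL by stock and volumes)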 | P9WFX0 | purified MbtI enzyme, fluorescence intensity read-out;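 active means above 50% in both replicates, above 80% if mildly self-fluorescent; inactive means the rest, strongly fluorescent compounds included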;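 further: 0% = mean of negative and 100% = mean of positive controls; one replicate is shown; some compounds called inactive have numbers as strong as hits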
# Target sequence (P9WFX0 whole entry, looked up): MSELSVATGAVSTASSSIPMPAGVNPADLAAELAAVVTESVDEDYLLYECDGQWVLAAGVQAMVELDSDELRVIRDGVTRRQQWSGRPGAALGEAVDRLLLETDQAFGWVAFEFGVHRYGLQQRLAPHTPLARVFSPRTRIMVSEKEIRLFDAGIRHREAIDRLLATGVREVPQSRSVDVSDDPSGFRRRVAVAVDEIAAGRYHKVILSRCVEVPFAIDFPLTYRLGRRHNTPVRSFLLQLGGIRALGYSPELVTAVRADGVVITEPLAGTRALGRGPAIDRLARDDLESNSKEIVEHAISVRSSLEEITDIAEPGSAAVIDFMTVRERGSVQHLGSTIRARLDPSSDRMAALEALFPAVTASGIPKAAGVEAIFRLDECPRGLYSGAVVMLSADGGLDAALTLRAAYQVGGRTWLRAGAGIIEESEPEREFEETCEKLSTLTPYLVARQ
# Mtb MenB inh: M. tuberculosis MenB inhibitors, primary screen, biochemical, absorbance; MenB enzyme assay, absorbance read-out; some hits fall short of the stated cut; actives 0.43% (n = 100,000); inhibition, %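 (about 12 µg/mL by stock and volumes)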; 1,4-dihydroxy-2-naphthoyl-CoA synthase (Mycobacterium tuberculosis (strain ATCC 25618 / …; AID 540299, 2011;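 active means mean of two replicates above 30%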;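 further: 0% = no compound and 100% = wells with inactive enzyme; the first replicate is given; strong numbers were not always called active; inactives centre near -10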
# Target sequence (P9WNP5 whole entry, looked up): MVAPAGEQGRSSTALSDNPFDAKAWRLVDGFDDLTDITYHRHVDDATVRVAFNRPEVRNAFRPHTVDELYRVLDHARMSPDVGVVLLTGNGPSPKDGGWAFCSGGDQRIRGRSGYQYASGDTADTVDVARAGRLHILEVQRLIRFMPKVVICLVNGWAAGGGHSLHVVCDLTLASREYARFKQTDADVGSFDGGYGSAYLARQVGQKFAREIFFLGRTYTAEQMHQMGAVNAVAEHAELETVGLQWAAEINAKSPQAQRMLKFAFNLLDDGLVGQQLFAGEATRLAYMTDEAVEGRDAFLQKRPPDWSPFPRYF
# PV pol inh intensity: also measured in PV pol inh; calls as there; % elongation; measured here: total intensity read-out; formula for this scale not given here;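 total fluorescence in place of polarization; lower means less elongation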
# * hit, by the source's call; · = not tested or not shown.
compound,PV pol inh,PV pol inh intensity,Mtb MbtI inh,Mtb MenB inh
C[C@]1(O)NC([S-])=C(C#N)C(c2ccc(Cl)cc2)C1[n+]1ccccc1 (some centres not stated),110.0,113.0,·,-13.5
C=CCNC(=O)CCN1C(=O)COc2ccccc21,101.0,101.0,-4.9,-3.8
Cn1cc(C(=O)c2ccccc2)cc1-c1nc2ccccc2n1C,101.0,102.0,-26.4,3.5
CCCCN1CCc2c1nc1ccc(Br)cc1c2N,102.0,98.0,15.7,-33.2
CCOC(=O)c1oc2ccccc2c1CSc1nnc2n(Cc3ccc(C)cc3)c(=O)c3ccccc3n12,104.0,110.0,-11.7,-7.1
CC1CC(C)CN(CC(=O)Nc2ccnn2C(C)C)C1 (configuration not stated),104.0,106.0,-6.2,-10.0
Cc1ccc(-n2c(SCC(=O)N3CCCCC3)nc3c([nH]c4ccccc43)c2=O)cc1,99.0,108.0,19.6,-11.6
O=C(CN1CCC(Cc2ccccc2)CC1)Nc1ccc2c(c1)OCO2,102.0,102.0,-4.6,-23.7
COC(=O)C1=C(C)NC(S)=C(C#N)C1c1cccnc1 (configuration not stated),121.0,114.0,·,-52.2
O=C(c1cnc2sc(N3CCCCC3)nn2c1=O)N1CCCC1,101.0,102.0,120.7,-2.5

# 3 compounds from above, arranged by count of non-hydrogen atoms, largest number first:
compound,PV pol inh,PV pol inh intensity,Mtb MbtI inh,Mtb MenB inh
Cc1ccc(-n2c(SCC(=O)N3CCCCC3)nc3c([nH]c4ccccc43)c2=O)cc1,99.0,108.0,19.6,-11.6
O=C(CN1CCC(Cc2ccccc2)CC1)Nc1ccc2c(c1)OCO2,102.0,102.0,-4.6,-23.7
COC(=O)C1=C(C)NC(S)=C(C#N)C1c1cccnc1 (configuration not stated),121.0,114.0,·,-52.2

# Following part.
compound,PV pol inh,PV pol inh intensity,Mtb MbtI inh,Mtb MenB inh
COc1ccc(NC(=O)CN2C(=O)C(C)Oc3ccccc32)cc1 (configuration not stated),101.0,101.0,-5.7,-4.9
O=C(CN1C(=O)C2CC=CCC2C1=O)Nc1ccc(S(=O)(=O)NC2=NCCCCC2)cc1 (configuration not stated),110.0,106.0,3.7,14.1
CSC(=Nc1cccc(C(F)(F)F)c1)SC,103.0,104.0,-5.8,·
CCOc1ccc(N(CC(=O)NC2CCCCCC2)S(=O)(=O)c2c(C)[nH]c(=O)[nH]c2=O)cc1,103.0,103.0,-3.2,-2.2
Cc1cccc(CSCC(=O)O)c1,104.0,99.0,-0.1,-25.1
CCN(CC)S(=O)(=O)c1ccc(C(=O)Nc2nccs2)cc1,99.0,101.0,1.8,11.9
CC1(C)Cc2c(sc3nc(NCCCO)[nH]c(=O)c23)CO1,100.0,105.0,-250.5,1.2
CCCN1CCN(C(=O)C2CCS(=O)(=O)C2)CC1 (configuration not stated),106.0,102.0,-11.5,-89.8
CCCCCCn1c(=O)[nH]c2nc3cc(N)c(C)cc3nc2c1=O,93.0,184.0,4.1,-19.3
O=S(=O)(c1ccc2c(c1)OCCO2)N1CCN(C(=S)Nc2cccc(Cl)c2)CC1,98.0,108.0,11.9,-23.4
Cc1cc(C(=O)CSc2nnc(C3CC3)n2C2CC2)c(C)s1,98.0,100.0,-5.2,-5.0
COCC(C)N=C1NN=C(c2cc(C)n(-c3cc(C(=O)OC)cc(C(=O)OC)c3)c2C)CS1 (configuration not stated),99.0,102.0,5.7,-50.0
CCOC(=O)C1=C(Nc2ccc(OC)cc2)OCC1=O,100.0,99.0,-6.1,-5.5
CNC(=O)CN(C#N)c1nc(C)cc(C)n1,102.0,104.0,-2.8,-10.8
CCN(CC)C(=O)COc1c(-c2ccco2)oc2ccccc2c1=O,101.0,101.0,90.3,-20.1
O=C(O)C1CCC(N2C(=O)C3C4C=CC(C4)C3C2=O)CC1 (configuration not stated),102.0,101.0,-6.4,-10.3
COCc1nc2c([nH]1)C(c1ccccc1COc1ccc(Cl)cc1)C(C#N)=C(N)O2 (configuration not stated),104.0,114.0,·,-14.3
O=C(O)c1cccc(S(=O)(=O)NOCc2ccccc2)c1,101.0,99.0,-6.8,2.1
CCCCN1Cc2cc(C(=O)c3cc(OC)ccc3O)cnc2NC1=O,108.0,110.0,19.2,-9.0
c1ccc(-c2cc3c(N4CCc5ccccc54)ncnc3s2)cc1,107.0,108.0,12.4,-0.3
C/C(=N\N=C(N)N)c1cccs1,101.0,105.0,21.8,17.0
COc1ccccc1/C=C/C=c1\sc2nc(-c3cc(OC)c(OC)c(OC)c3)nn2c1=O,102.0,105.0,-7.0,-12.6
N/C(CSc1ccc(Cl)cc1)=N\S(=O)(=O)c1ccc(Cl)cc1,104.0,108.0,-6.2,-9.6
COC(=O)c1c(C)oc2ccc(N(C(C)=O)S(=O)(=O)c3ccc4ccccc4c3)cc12,102.0,95.0,16.7,11.1
COC(=O)c1cc(S(=O)(=O)NCCCc2ccco2)c[nH]1,98.0,101.0,14.4,14.3
O=C(O)CC1(CC(=O)N2CCN(C(c3ccccc3)c3ccccc3)CC2)CCCC1,103.0,109.0,-8.8,-2.9
O=C(COC(=O)c1ccc2[nH]c3c(c2c1)CCCC3)NCc1ccco1,100.0,103.0,127.2,5.6
CC1CCN(C(=O)c2cccc(Nc3nc4ccccc4n4nnnc34)c2)CC1,102.0,99.0,24.3,14.3
S=C(NCc1ccc2[nH]c3c(c2c1)CCCC3)Nc1ccccc1,104.0,105.0,-8.2,-35.7
O=C1SCC(c2ccccc2)S1 (configuration not stated),105.0,102.0,-20.4,-44.4

# 5 compounds from above, showing only Mtb MenB inh, PV pol inh and Mtb MbtI inh:
canonical_smiles	Mtb MenB inh	PV pol inh	Mtb MbtI inh
O=C(COC(=O)c1ccc2[nH]c3c(c2c1)CCCC3)NCc1ccco1	5.6	100.0	127.2
O=C1SCC(c2ccccc2)S1 (configuration not stated)	-44.4	105.0	-20.4
COc1ccccc1/C=C/C=c1\sc2nc(-c3cc(OC)c(OC)c(OC)c3)nn2c1=O	-12.6	102.0	-7.0
COC(=O)c1c(C)oc2ccc(N(C(C)=O)S(=O)(=O)c3ccc4ccccc4c3)cc12	11.1	102.0	16.7
COC(=O)c1cc(S(=O)(=O)NCCCc2ccco2)c[nH]1	14.3	98.0	14.4

# Carrying on:
compound,PV pol inh,PV pol inh intensity,Mtb MbtI inh,Mtb MenB inh
O=C(/C=C/c1ccccc1)OCC(=O)N1CCc2ccccc21,102.0,107.0,-9.9,·
Cc1ccc(CCN2CC(C(=O)O)CC2=O)cc1 (configuration not stated),101.0,104.0,-7.8,5.0
COc1ccc(S(=O)(=O)N2CCCC(c3nc4ccccc4c(=O)[nH]3)C2)cc1 (configuration not stated),100.0,102.0,-12.9,-13.1
CN1CCC(N2CCCCC2)CC1,100.0,101.0,-5.7,-32.2
COCc1c(C(=O)NCc2nnc3ccccn23)oc2ccccc12,106.0,102.0,-1.9,-4.0
CC1(NC(=S)NCCO)CCS(=O)(=O)C1 (configuration not stated),104.0,100.0,-2.6,-10.0
CCN(CCC#N)c1ccc(CNCCCn2cnc3ccccc32)c(C)c1,96.0,100.0,3.3,-10.1
O=c1nc(N2CCOCC2)nc(Nc2ccc3ccccc3c2)[nH]1,99.0,99.0,-5.7,-18.0
CCC1(C)NC(=O)N(NC(=O)c2ccc(S(=O)(=O)N3CCCC3)cc2)C1=O (configuration not stated),100.0,93.0,15.9,-10.1
COC(=O)C(NC(=O)NC1CCCCC1)C(C)C (configuration not stated),103.0,99.0,-11.1,-37.2
C/C(=C\C(=O)C(F)(F)F)NCc1ccc(S(N)(=O)=O)cc1,106.0,112.0,14.0,4.6
O=C(NCCc1ccccc1)c1ccc2cn[nH]c2c1,101.0,96.0,55.5,10.5
CC(C(=O)NC1CCCCC1)N1C(=O)C2C3C=CC(C3)C2C1=O (configuration not stated),103.0,98.0,7.7,-11.5
CCOC(=O)NC(=S)c1ccc(OC)cc1,82.0*,86.0*,78.5*,-7.2
CCC(C)NC(=O)CSc1nc2ccsc2c(=O)n1Cc1ccc(OC)cc1 (configuration not stated),101.0,107.0,-3.8,0.1
CC(NC1CCCCCCC1)C(=O)Nc1ccc(S(N)(=O)=O)cc1 (configuration not stated),101.0,108.0,-18.4,5.8
CC(Nc1ccc(-n2cnnn2)cc1)C(=O)Nc1ccc2c(c1)OCCO2 (configuration not stated),102.0,94.0,-13.7,-12.4
CC1(C)CC2CC(C)(CN2C(=O)COC(=O)c2ccccc2)C1 (configuration not stated),102.0,104.0,-6.8,·
CCOC(=O)N1CCN(C(=O)CN(c2cc(C(F)(F)F)ccc2Cl)S(C)(=O)=O)CC1,101.0,104.0,2.0,-2.0
O=C(NCCC1=CCCCC1)C1COc2ccccc2O1 (configuration not stated),99.0,104.0,·,-6.8
C/C(N)=C(/C#N)C(=O)CSc1cccc[n+]1[O-],103.0,105.0,13.3,-10.5
CC1CCN(C(=O)COC(=O)c2ccc(OC(F)(F)F)cc2)CC1,102.0,104.0,-10.3,·
COc1ccc(OC)c(-c2cc(C(N)=O)on2)c1,99.0,98.0,2.3,-24.6
c1ccc(C2N3CCCN2CC3)cc1 (configuration not stated),104.0,108.0,-11.6,7.9
O=C(O)c1cccc(Nc2nc3ccccc3n3cnnc23)c1,101.0,106.0,9.6,8.6
N#CC(C(N)=O)C(=S)Nc1ccccc1 (configuration not stated),99.0,95.0,19.6,-3.7
Cc1ccc(OCC(O)CN2C(=O)NC(C)(C)C2=O)c(Cl)c1 (configuration not stated),102.0,101.0,5.6,-18.6
O=C(NCc1cccs1)c1ccccc1NC(=O)C(F)(F)F,104.0,109.0,·,2.3
O=c1[nH]c(CSc2ncnc3sccc23)nc2sc3c(c12)CCCC3,·,·,-1.6,-13.5
CCN(CC)C(=O)C1=C(C)Nc2nc3ccccc3n2C1c1cc(Br)ccc1OC (configuration not stated),102.0,104.0,-0.3,-4.2
O=c1nc(N2CCCCC2)ccn1-c1nc(-c2ccccc2)oc1-c1ccccc1,103.0,103.0,-48.8,-1.2
CC[C@@]1(O)C[C@H](O)c2c(cc3c(c2O)C(=O)c2c(O)ccc(O)c2C3=O)[C@H]1C(=O)OC,60.0,188.0,-0.6,1.8
Cc1ccc(CSCc2ccc(C(=O)NC3CCCC3)o2)cc1,102.0,98.0,-1.3,-0.4
N#CC(c1ccccc1)c1ccccn1 (configuration not stated),102.0,106.0,-23.1,-25.9
CC(NC(=O)CC12CC3CC(CC(C3)C1)C2)C(=O)O (configuration not stated),101.0,97.0,-7.9,-22.2
CNc1ccc2ccccc2c1,119.0,135.0,105.9,-26.6
COc1ccc(C)cc1C(=O)CCC(=O)O,100.0,102.0,-24.8,-2.1
O=C1CC(=O)SC(c2ccccc2)=N1,99.0,101.0,6.8,-5.4
O=c1cc(-c2ccccc2)nc2c(n1)NON2,103.0,98.0,·,3.9
O=C(OCc1nnc(-c2ccccc2)o1)C1c2ccccc2Oc2ccccc21,101.0,102.0,-11.8,-5.9
N#CC(C#N)=C1c2ccccc2-c2c1nc1ccccc1[n+]2[O-],103.0,100.0,-11.8,-20.3
O=C1c2ccccc2C2=Nc3ccccc3SC12O (configuration not stated),102.0,103.0,48.5,2.5
Cn1c(-c2ccccc2)c(/C=C2/C(=O)Oc3ccccc3C2=O)c2ccccc21,94.0,105.0,16.4,-26.7
CCCCN(C(=O)c1ccccc1)C1CC2CCC(C1)N2C (configuration not stated),103.0,106.0,·,7.0
O=C(/C=C/c1cccs1)NC1CC1,106.0,107.0,6.2,-0.5
CC(=O)OC[C@H]1O[C@@H](n2cc(C)c(=O)[nH]c2=O)C[C@@H]1OC(C)=O,101.0,97.0,·,0.0
CCCNC(=O)NC1CCN(c2ncc(C(F)(F)F)cc2Cl)CC1,102.0,110.0,-8.1,-5.4
O=C(COc1ccc2oc3c(c2c1)CCCC3)NCCNc1ncc(C(F)(F)F)cc1Cl,104.0,107.0,4.5,-10.1
O=C(Oc1cccc(C(F)(F)F)c1)c1cc2ccc3ccccc3c2s1,108.0,107.0,-14.7,8.4
O=c1c(C=NCc2ccco2)c(CSc2ccc(Cl)cc2)[nH]n1-c1nc2ccccc2s1,102.0,102.0,·,-9.7

# Going on with the list.
compound,PV pol inh,PV pol inh intensity,Mtb MbtI inh,Mtb MenB inh
O=C1C=CC[C@H]2[C@@H]3CCCN4CCC[C@H](CN12)[C@H]34,102.0,102.0,-3.4,-4.5
CCSc1nnc(NC(=O)Cc2n[nH]c(=O)c3ccccc23)s1,103.0,109.0,1.5,15.7
CCN(C(=O)[C@@H]1CCCN1C(=O)c1cccs1)c1nc2cc(Cl)ccc2s1,99.0,105.0,6.2,-6.8
O=C(COC(=O)C1=COCCO1)NC1CCCCCCC1,104.0,106.0,-9.8,-18.6
N#Cc1c(N)n(Cc2ccc(Cl)cc2)c2nc3ccccc3nc12,75.0*,85.0*,-138.6,-78.5
COc1ccc(-c2coc3cc(OC)cc(O)c3/c2=N\N)cc1,110.0,101.0,-12.0,-30.7
CCC(C)/C(C)=N/Nc1ccc(Cl)cc1 (configuration not stated),131.0,131.0,-6.2,-43.9

# Screening results deposited in PubChem BioAssay by ICCB-Longwood Screening Facility, Harvard Medical School.
